PKD1 inh: inhibitors of human PKD1 kinase, biochemical, fluorescence polarization. 200,000 compounds, 0.056% hits. inhibition, %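 (about 10 µM by stock and volumes)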. AID 797, 2007. PKD1 kinase fluorescence polarization assay. Serine/threonine-protein kinase D1 (Homo sapiens), Q15139;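 active = inhibition of 50% or more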;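 also: controls were vehicle for no effect and a reference inhibitor for full effect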
Insulin prom inh: inhibitors of insulin promoter-driven GFP, primary screen, imaging, TRM-6 cells (human fetal islet line), eGFP reporter, cell count | reporter expression induced with tamoxifen | inhibition, % at 2 µM | 130,000 compounds, 0.9% hits;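 active = inhibition above the mean plus 3 SD, with well images judged a real hit on visual review, cut at about 60% in these data, passing the limit was not always enough; inconclusive = inhibition over the cutoff but images rejected on review; inactive = inhibition not above the cutoff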
HSV replic up: enhancers of HSV replication in host cells, fold increase, host cell viability; HSV replication augmentation in cells; maximum fold increase; 220,000 compounds, 0.005% hits;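 active = peak rise of 1.5-fold or more in the series; inconclusive = self-fluorescent or not available for retest; tested in PC3 cells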;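 also: first round at 10 µM; read as green reporter fluorescence; hits show the peak of a series up to 25 µM; 1 = signal of infected wells without compound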
GALR2 agonist: GALR2 receptor agonists, primary screen, cell-based; Galanin receptor type 2 (Homo sapiens), O43603; GALR2-expressing cells, agonist activation read-out; activation, %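 (tested at 5 µM)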; 140,000 compounds, 0.48% hits; AID 803, 2007;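 active = above mean plus 3 SD of all compounds, about 5% in these data, not always enough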;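 also: 0% = vehicle buffer wells and 100% = reference agonist at full effect; tested in CHO reporter cells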
Target sequence (O43603 whole entry, looked up): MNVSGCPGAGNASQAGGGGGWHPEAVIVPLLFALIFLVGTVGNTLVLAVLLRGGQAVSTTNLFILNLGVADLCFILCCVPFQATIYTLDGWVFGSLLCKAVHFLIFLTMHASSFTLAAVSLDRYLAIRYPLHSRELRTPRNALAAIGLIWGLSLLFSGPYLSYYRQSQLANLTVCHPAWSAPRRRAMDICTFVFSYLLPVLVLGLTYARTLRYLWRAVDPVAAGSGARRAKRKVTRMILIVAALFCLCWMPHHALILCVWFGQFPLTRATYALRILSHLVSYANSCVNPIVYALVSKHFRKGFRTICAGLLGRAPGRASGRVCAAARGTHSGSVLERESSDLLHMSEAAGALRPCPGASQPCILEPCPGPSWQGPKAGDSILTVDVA
RGS16-Gao: modulators of RGS16 binding to Galphao, primary screen, biochemical, human proteins, multiplexed bead flow cytometry; 220,000 compounds, 0.38% hits; bead-based flow cytometry RGS16-Galphao binding, fluorescence; actives lie on both sides; Regulator of G-protein signaling 16 (Homo sapiens) + Guanine nucleotide-binding protein …; binding response (% of control), % at 10 µM;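 active = below 25% or above 175%, edge rows of some plates excepted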;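 also: Galphao activated by GDP with aluminum fluoride before binding; 100% = wells without compound and 0% = beads without RGS; some results beyond the cut were filed as inactive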
Target sequence (O15492 whole entry, looked up): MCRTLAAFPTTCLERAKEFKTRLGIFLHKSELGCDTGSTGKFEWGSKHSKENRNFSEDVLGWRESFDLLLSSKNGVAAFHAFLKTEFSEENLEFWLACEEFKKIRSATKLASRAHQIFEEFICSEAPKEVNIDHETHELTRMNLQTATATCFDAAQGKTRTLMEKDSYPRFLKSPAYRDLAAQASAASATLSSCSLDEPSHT
Target sequence (P09471 whole entry, looked up): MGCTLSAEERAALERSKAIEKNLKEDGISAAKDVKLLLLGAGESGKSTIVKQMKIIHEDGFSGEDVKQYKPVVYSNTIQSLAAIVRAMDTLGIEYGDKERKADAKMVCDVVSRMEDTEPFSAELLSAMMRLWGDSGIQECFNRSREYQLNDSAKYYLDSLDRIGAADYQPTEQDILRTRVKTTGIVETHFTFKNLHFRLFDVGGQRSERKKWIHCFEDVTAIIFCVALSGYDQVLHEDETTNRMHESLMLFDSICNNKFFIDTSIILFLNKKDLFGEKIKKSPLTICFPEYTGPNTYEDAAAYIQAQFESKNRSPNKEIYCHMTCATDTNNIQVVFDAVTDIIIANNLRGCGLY
Insulin prom inh cell count: second read-out of Insulin prom inh, no call of its own (marks repeat the call); normalized cell count, %; measured here: cell count, toxicity; reference of the scale not given here;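 cells exposed to compound for 48 h; stained nuclei by imaging scaled within each plate; lower means fewer cells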
HSV replic up primary fold: also measured in HSV replic up; calls as there; fold increase; compound at 10 µM; measured here: primary screen fold increase 10 uM; tested in PC3 cells;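 GFP signal in the first replicate; 1 = infected wells without compound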
Active calls of the source: *; i = inactive; ? = inconclusive; · = not tested or not shown; & = joins results of further samples.

SMILES | PKD1 inh | Insulin prom inh | Insulin prom inh cell count | HSV replic up | HSV replic up primary fold | GALR2 agonist | RGS16-Gao
CCn1c(COc2cccc(C)c2)nnc1SCC(=O)Nc1cccc(C(=O)OC)c1 | 5 | 9 | 104 | i | 0.79 | -2.1 | 116
O=S(=O)([O-])CCC[N+]1(CC#Cc2ccccc2)CCCCC1 | 0 | -29 | 95 | i | 0.92 | · | 95
Cc1cccc(N=C2NC(=O)/C(=C/C=C/c3ccco3)S2)c1 | 8 | 3 | 110 | · | · | 1.0 | 98
Cc1ccc(Nc2cnn(C34CC5CC(CC(CC(=O)O)(C5)C3)C4)c(=O)c2Cl)cc1C | 4 | -37 | 98 | i | 0.89 | -2.4 | 106
COc1ccccc1-c1cc(C(F)(F)F)nc(S(=O)(=O)CCCC(=O)NC(C)C)n1 | 20 | · | · | i | 0.48 | 0.2 | 95
O=C(Oc1cccc(OC(=O)N2CCCCC2)c1)N1CCCCC1 | -4 | -36 | 68 | i | 0.79 | · | 104
CCCNC(=O)CN(c1ccc(F)cc1)S(=O)(=O)c1ccc2c(c1)OCCO2 | 56* | 7 | 78 | i | 0.9 | -2.8 | 86
CCSc1nnc(CSc2ncccn2)n1C | -6 | · | · | i | 0.97 | · | 107
CCCCN(C)S(=O)(=O)c1ccc(C(=O)Nc2nnc(C3=COCCO3)o2)cc1 | -3 | · | · | i | 1.1 | · | 102
Nc1nonc1-n1nncc1-c1ccccc1 | -3 | -54 | 52 | i | 0.96 | 0.1 | 102

PKD1 inh, entries above that show a hit
molecule | PKD1 inh | HSV replic up primary fold | GALR2 agonist | RGS16-Gao
CCCNC(=O)CN(c1ccc(F)cc1)S(=O)(=O)c1ccc2c(c1)OCCO2 | 56* | 0.9 | -2.8 | 86

Profiles from above.
Cc1cccc(N=C2NC(=O)/C(=C/C=C/c3ccco3)S2)c1 as listed: PKD1 inh: 8; Insulin prom inh: 3; Insulin prom inh cell count: 110; HSV replic up: ·; HSV replic up primary fold: ·; GALR2 agonist: 1.0; RGS16-Gao: 98
COc1ccccc1-c1cc(C(F)(F)F)nc(S(=O)(=O)CCCC(=O)NC(C)C)n1 as listed: PKD1 inh: 20; Insulin prom inh: ·; Insulin prom inh cell count: ·; HSV replic up: i; HSV replic up primary fold: 0.48; GALR2 agonist: 0.2; RGS16-Gao: 95
CCCCN(C)S(=O)(=O)c1ccc(C(=O)Nc2nnc(C3=COCCO3)o2)cc1 as listed: PKD1 inh: -3; Insulin prom inh: ·; Insulin prom inh cell count: ·; HSV replic up: i; HSV replic up primary fold: 1.1; GALR2 agonist: ·; RGS16-Gao: 102

More entries.
SMILES | PKD1 inh | Insulin prom inh | Insulin prom inh cell count | HSV replic up | HSV replic up primary fold | GALR2 agonist | RGS16-Gao
Cc1ccc(-c2nnc3c4ccccc4c(C)nn23)cc1NC(=O)CN1CCOCC1 | -8 | -75 | 88 | i | 0.67 | -0.8 | 94
CCc1cc2c(NCCN3CCCCC3)ncnc2s1 | -4 | 9 | 129 | i | 0.92 | -4.1 | 57
CSc1ccccc1C(=O)Nc1c(C)cccc1C | -4 | · | · | i | 1.1 | · | 97
CC1CCc2cc(F)ccc2N1C(=O)c1cccs1 (centres undefined) | 4 | · | · | i | 0.68 | · | 95
O=C(OCC(=O)N1CCN(c2ccccc2)CC1)c1cnc(Cl)c(Cl)c1 | -1 | 40 | 135 | i | 0.95 | · | 118
COc1ccc(Nc2nc(C(=O)N3CCc4cc(OC)c(OC)cc4C3)cs2)cc1 | · | · | · | i | 0.9 | · | 98
Clc1ccc(Cl)c(-c2nn3c(Cn4cnc5ccccc54)nnc3s2)c1 | -2 | 3 | 166 | i | 0.76 | -2.8 | ·
COc1cccc(C(=O)NC(c2ccccc2)C2CCCC2)c1 (centres undefined) | 4 | · | · | i | 0.98 | · | 94
COc1cccc(-n2c(SCC(N)=O)nnc2-c2ccncc2)c1 | 0 | · | · | i | 0.83 | -0.5 | 99
C=CCN1C(=O)C2C3CC(=O)C(c4ccccc43)C2C1=O (centres undefined) | 10 | -8 | 115 | i | 1 | · | 95
Cc1ccccc1CSCC(=O)NC1CCCC1 | -12 | -150 | 71 | i | 0.99 | -3.4 | 88
CCC(C)(C)c1ccc(OCCN2C(=O)NC(C)(C)C2=O)cc1 | 2 | · | · | i | 0.68 | -0.6 | 103
COc1ccc(-c2noc(CCC(=O)N3CCN(Cc4ccccc4)CC3)n2)cc1 | 10 | -61 | 119 | i | 0.84 | -2.0 | 102
CC(=O)Nc1ccc(Nc2nc(C)c([N+](=O)[O-])c(N(C)c3ccccc3)n2)cc1 | · | · | · | i | 0.9 | · | 110
O=c1[nH]c2c(c(=O)[nH]1)CCC2 | -5 | · | · | i | 0.86 | · | 95
O=C(CCN1CCc2ccccc2C1)Nc1ccc(F)cc1 | 7 | · | · | i | 0.94 | -0.8 | 102
Cc1cc(C)nc(CCNC(=O)c2cc(COc3ccc(F)cc3Cl)on2)n1 | -13 | · | · | i | 0.83 | · | 106
Cc1ccc(NC(=S)N2CCC(C(N)=O)(N3CCCCC3)CC2)c(C)c1 | -5 | · | · | i | 1 | · | 97
CCOc1ccc(N2C(=O)CSC2c2ccncc2)cc1 (centres undefined) | 6 | 5 | 168 | i | 0.69 | -0.7 | 100
CCc1cc(-c2n[nH]c(=S)n2CC)cs1 | -1 | 14 | 110 | i | 1.1 | 0.3 | 102
Cc1cc2cc(CNC(=O)c3ccc(C)c([N+](=O)[O-])c3)ccc2[nH]1 | -6 | 40 | 93 | · | · | -0.5 | 101
O=C(O)CNC(=O)/C(=C\c1cccc([N+](=O)[O-])c1)NC(=O)c1ccco1 | · | · | · | i | 0.96 | · | 100
C=C(C)COc1ccc(-c2n[nH]c(C)c2-c2ccc(Br)cc2)c(O)c1 | -4 | -13 | 144 | i | 0.81 | 2.2 | 101
CC(C)CCn1nc(C(=O)Nc2nc3c(s2)CCCC3)c2ccccc2c1=O | -18 | 46 | 115 | i | 1 | -1.8 | 116
COc1ccc(/C=C/c2nc(-c3ccccc3O)n[nH]2)cc1OC | -3 | · | · | i | 0.96 | -1.0 | 104
O=C(Nc1ccc(S(=O)(=O)Nc2ccc(F)cc2)cc1)c1ccc(CN2CCOCC2)cc1 | 6 | · | · | i | 0.97 | · | 112
CCOC(=O)c1ccc(NC(=O)CN(c2ccc(C)cc2)S(=O)(=O)c2c(C)nn(C)c2C)cc1 | 3 | -4 | 90 | i | 0.86 | 0.4 | 108
NC(=O)NOCc1cccc(Cl)c1 | -3 | 49 | 100 | i | 1.1 | · | 95
COc1ccc(C(=O)NCc2ccc3c(c2)cc(C)n3C)cc1 | -6 | · | · | i | 1.1 | · | 99
COc1ccc2nc(/N=C(\N)NC(=O)Nc3ccccc3)nc(C)c2c1 | -9 | 18 | 126 | i | 0.69 | -0.1 | 100
CCOc1ccc(NC(=S)NC(=O)c2c(Cl)cnn2CC)c([N+](=O)[O-])c1 | -4 | · | · | i | 1 | -0.4 | 103
Clc1ccc(CON/C=N/c2ncnc3sccc23)cc1 | 0 | 23 | 80 | i | 0.97 | -1.9 | 72
CCNC(=S)N/N=C/c1cccc(/C=N/NC(=S)NCC)c1 | 1 | · | · | i | 0.82 | · | 100
Oc1ccccc1/C=N/NC1=NCCCCC1 | -8 | -15 | 164 | i | 1.1 | -3.9 | 103
COc1ccccc1C1c2[nH]c3ccccc3c2CCN1Cc1ccc(NC(C)=O)s1 (centres undefined) | · | · | · | i | 0.99 | · | 107
Cc1ccc(Cn2c(SC(C)C(N)=O)nc3ccccc3c2=O)cc1 (centres undefined) | 1 | 42 | 97 | i | 1 | · | 108
COCCCNC(=O)CC(NS(=O)(=O)c1ccc(Cl)cc1)c1ccco1 (centres undefined) | 4 | -136 | 17 | i | 0.84 | 0.3 | 167
Cc1ccc(C)c(NS(=O)(=O)c2ccc(OCC(=O)NCc3cccnc3)cc2)c1 | 4 | -18 | 49 | i | 0.89 | -1.2 | 103
C/C(=N/NC(=O)c1ccccc1)C1=C(O)CC(C)(C)CC1=O | 4 | · | · | i | 0.89 | · | 112
CCOC(=O)CC(NC(=O)C1c2ccccc2Oc2ccccc21)c1ccc(C)cc1 (centres undefined) | -14 | -3 | 87 | i | 0.98 | -1.0 | 102

As a short view, part of the list above:
SMILES | PKD1 inh | Insulin prom inh | Insulin prom inh cell count | HSV replic up | HSV replic up primary fold | GALR2 agonist | RGS16-Gao
C/C(=N/NC(=O)c1ccccc1)C1=C(O)CC(C)(C)CC1=O | 4 | · | · | i | 0.89 | · | 112
CCOC(=O)CC(NC(=O)C1c2ccccc2Oc2ccccc21)c1ccc(C)cc1 (centres undefined) | -14 | -3 | 87 | i | 0.98 | -1.0 | 102

(more compounds)
SMILES | PKD1 inh | Insulin prom inh | Insulin prom inh cell count | HSV replic up | HSV replic up primary fold | GALR2 agonist | RGS16-Gao
Cc1nn(C)c(C)c1N1C(=O)c2cccc3c(N)ccc(c23)C1=O | 67* | -23 | 123 | ? | · | -1.1 | 101
CCOc1ccccc1N(CC(=O)N1CCOCC1)S(=O)(=O)c1ccc(SC)cc1 | 0 | -388 | 76 | i | 0.88 | -0.8 | 104
C=CCn1c(CC#N)nnc1N1CCOCC1 | -5 | 58 | 88 | i | 0.86 | -3.9 | 100
O=C(CN1CCOCC1)N1CCN(S(=O)(=O)c2ccccc2)C1c1ccccc1 (centres undefined) | -17 | 3 | 93 | i | 1 | -0.3 | 99
Cc1onc(-c2ccccc2Cl)c1C(=O)NNC(=O)C1CCN(Cc2ccccc2)CC1 | -2 | 15 | 89 | i | 0.79 | · | 101
Cc1cc(NC(=O)c2cccc(S(=O)(=O)N3c4ccccc4CC3C)c2)no1 (centres undefined) | · | · | · | i | 0.9 | · | 92
O=C(Nc1ccc(SC(F)F)cc1)c1cccc2nc3ccccc3nc12 | 1 | -26 | 87 | i | 1 | -1.5 | 100
O=C(CN(Cc1ccccc1F)C(=O)c1ccco1)NCc1ccc(F)cc1 | -13 | · | · | i | 1 | -1.0 | 93
CCSc1oc(-c2ccco2)nc1S(=O)(=O)c1ccccc1 | -8 | -37 | 95 | i | 0.73 | -2.0 | 100
CCc1cc(=O)oc2cc(OC(C)C(=O)O)c(Cl)cc12 (centres undefined) | -14 | · | · | i | 0.86 | -0.9 | 101
Cn1c(=N)n(CC(O)c2cccc3ccccc23)c2ccccc21 (centres undefined) | -4 | -64 | 83 | i | 0.84 | -1.1 | 105
CC(=O)OCc1cc2cc(C)ccc2[nH]c1=O | -12 | · | · | i | 0.99 | -0.2 | 101
CN1C(C(=O)Nc2ccccn2)=C(O)c2ccccc2S1(=O)=O | -3 | 23 | 101 | i | 0.69&0.97 | -0.5 | 103&108
C=CCc1cccc2cc(C(=O)Nc3ccc(NC(C)=O)cc3)c(=O)oc12 | -3 | 2 | 135 | i | 0.95 | · | 102
O=C(NCc1cccnc1)c1ccc(COc2ccccc2Cl)cc1 | -10 | 0 | 133 | i | 0.77 | · | 101
COC(C[C@@H](O)[C@@H](C)[C@H](O)COCc1ccccc1)OC | · | · | · | i | 0.88 | · | 110
CCn1nnnc1SCC(=O)N(C1CCCCC1)C1CCCCC1 | 0 | · | · | i | 1.1 | -1.8 | 101
O=C(NC(=S)Nn1cnnc1)c1ccccc1Cl | -6 | 11 | 73 | i | 1.1 | · | 103
Cc1nc2ccc(NC(=O)c3ccco3)cc2s1 | -6 | · | · | i | 0.89 | · | 110
O=C1CCCC2=C1C(c1cccs1)n1nc(SCc3ccccc3F)nc1N2 (centres undefined) | -4 | -50 | 138 | i | 0.89 | 0.3 | 99
COc1ccc(CNCCC(c2ccc(OC(C)C)cc2)C(C)C)cc1OC (centres undefined) | -2 | · | · | i | 0.95 | -0.7 | 229
OC(CCN1CCOCC1)(c1ccc(Cl)cc1)C1CCCCC1 (centres undefined) | -1 | -22 | 146 | i | 0.94 | -0.7 | 40

Taken from above:
Value of `O=C(NCc1cccnc1)c1ccc(COc2ccccc2Cl)cc1` under RGS16-Gao: 101
Value of `Cc1nc2ccc(NC(=O)c3ccco3)cc2s1` under RGS16-Gao: 110

Assay outcomes (PubChem)
